gsp antagonist – gsp mutant antagonism | gsp-mutant cells, cAMP HTRF, 30 min; control for the full effect not named in the record | Potency, µM (doses to about 76.9 µM), inactives show at the top dose activity change, negative = inhibition, actives largely listed as inhibitors | actives 0.4% (n = 340,000); active = falling curve of any shape with a large fitted effect; inconclusive = falling curve, mostly with a smaller effect; inactive = flat or rising curve; cell line not stated here;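 also: intracellular cAMP measured with PDE inhibitor Ro 20-1724 present during compound exposure; potency is read from the fitted curve at half-maximal effect; % is scaled to controls: 0 for no effect and ±100 for the full control effect; nearly all actives have a fitted effect of over 65% in size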
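G418-selected cells were plated in DMEM/10% FBS for 16-24 h at 37C, then treated with compounds plus the PDE inhibitor […] (300 uM solution added) for 30 min at 37C. Intracellular cAMP was measured by HTRF after 30 min lysis at room temperature.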
Menin MLL FP FL – displaces fluorescein MLL peptide from human menin; Fluorescence polarization, fluorescein-MLL peptide displacement from menin; FP activity change, % at 61.4 µM; 290,000 tested, under 10 active; AID 1766; inconclusive = falling polarisation curve, or a change in total fluorescence; inactive = total fluorescence flat and polarisation flat or rising; no compound was filed as active; the % refers to the polarisation; negative = inhibition;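 also: % of control where 0% means no effect; inhibitors lower the polarisation; unlabelled MLL peptide was the positive control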
gsp agonist – activates gsp, the McCune-Albright syndrome mutation; gsp mutant cells, cAMP HTRF, 30 min; control for the full effect not named in the record; Potency, µM (highest dose often 76.9 µM), for inactives: top-dose activation (cAMP increase), usual class: activators; actives 0.13% (n = 340,000); active = well fitted activation curve with a large enough effect; inconclusive = small, poorly fitted or top-dose-only effect, or another doubt; inactive = no such curve, though single readings can be large or run the other way; cell line not stated here;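 also: phosphodiesterase inhibitor Ro 20-1724 added with compounds to block cAMP breakdown; potency is read from the fitted curve at half-maximal effect; nearly all actives have a fitted effect of over 60% in size; about a fifth of the inactives were tested at one dose only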
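Cells in DMEM/10% FBS with G418 were pretreated with compounds in DMSO plus […] (300 uM stock) for 30 min at 37C. cAMP was measured by HTRF (cAMP-d2 plus anti-cAMP antibody-K) after 30 min at room temperature.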
TRPML1 ag – human mucolipin-1 channel agonism. actives 0.12% (n = 410,000). Q9GZU1. TRPML1-expressing cells, Ca2+ dye fluorescence, FDSS; host cell line not named in the record; reference of the full effect not given here. activation, % (no concentration beside the values); in the data active = activation above about 50%; inconclusive = about 30% to 50%; inactive = below about 30%; also: 0% is about no effect; the text of the record puts the active cut at 80%
Target sequence (Q9GZU1 whole entry, looked up): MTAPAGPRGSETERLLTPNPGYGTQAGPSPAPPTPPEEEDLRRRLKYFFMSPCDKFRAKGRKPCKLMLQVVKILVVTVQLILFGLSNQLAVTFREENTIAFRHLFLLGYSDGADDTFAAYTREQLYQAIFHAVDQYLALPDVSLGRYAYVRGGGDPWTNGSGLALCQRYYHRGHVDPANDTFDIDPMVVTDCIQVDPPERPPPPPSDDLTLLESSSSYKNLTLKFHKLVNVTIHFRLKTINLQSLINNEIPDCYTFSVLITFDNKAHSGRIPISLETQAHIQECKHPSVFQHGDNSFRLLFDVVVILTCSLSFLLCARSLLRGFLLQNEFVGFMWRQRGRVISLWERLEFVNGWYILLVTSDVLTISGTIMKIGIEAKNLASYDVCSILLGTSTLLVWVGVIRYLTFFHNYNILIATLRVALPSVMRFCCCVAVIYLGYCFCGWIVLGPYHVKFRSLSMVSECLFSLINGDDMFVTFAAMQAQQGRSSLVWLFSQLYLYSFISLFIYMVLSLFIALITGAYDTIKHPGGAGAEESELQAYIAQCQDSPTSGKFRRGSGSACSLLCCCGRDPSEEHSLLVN
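Kinetic FDSS Ca2+ read in Tet-induced TRPML1-DL cells (ABD Ca8 dye plus quencher, 45-90 min RT loading): baseline, then compound, then 110 s agonist window; EC80 agonist 54-4 at 4uM final added afterwards for a 110 s antagonist window.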
ClpP mod – qHTS Assay for Activators of ClpP | Potency, µM (series often up to 57.5 µM), inactives show top-dose activity change, negative = active | purified B. subtilis ClpP, FRET peptide cleavage, 20 min | AID 651965, 2013 | actives 1.9% (n = 340,000); active = well fitted falling curve with a large enough effect; inconclusive = small, poorly fitted or top-dose-only effect; inactive = no such curve, though single readings can be large or run the other way; also: potency is read from the fitted curve at half-maximal effect; the source files actives as falling curves though it sought activators and does not explain the sign; nearly all actives have a fitted effect of over 65% in size; many hits overshoot -100%
Target sequence (P80244 whole entry, looked up): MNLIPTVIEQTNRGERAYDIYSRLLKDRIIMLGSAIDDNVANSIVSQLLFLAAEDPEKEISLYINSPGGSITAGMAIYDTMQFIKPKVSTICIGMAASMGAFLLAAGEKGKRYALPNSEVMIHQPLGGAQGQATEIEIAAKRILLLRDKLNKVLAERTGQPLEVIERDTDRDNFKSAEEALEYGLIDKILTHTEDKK
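ClpP 10 microg/mL final, pH 8 Tris/KCl buffer with BSA, glycerol, Tween-20; compound pinned in; FRET-FV substrate; RT 20 min; Ex320/Em430; ΔFRET vs ADEP 5.8 microM, DMSO, no enzyme.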
TRPML1 inh – blocks the human TRPML1 channel; AID 624415; actives 0.02% (n = 390,000); activity change, negative = inhibition, % (no concentration beside the values); TRPML1-inducible cells, Ca2+ dye fluorescence, FDSS; stronger effect = lower value; inhibition of EC80 agonist-evoked calcium signal; in the data active means activity change below about -50%; inconclusive means about -30% to -50%; inactive means above about -30%;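 also: stimulus is agonist 54-4 at its EC80 concentration; % is scaled to controls: 0 for no effect and ±100 for the full control effect; compound concentration not given in the record; the text of the record puts the active cut at -80%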
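TRPML1-DL cells, Tet-induced overnight (~16 h, 37 °C) at 1,500 cells/well, were loaded with Ca8 no-wash dye plus quencher for 45-90 min at room temperature. Compounds were pinned during FDSS kinetic reading; agonist 54-4 at EC80 (4 uM final) then added.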
The depositor's hits bear a star; ? = inconclusive; · = not tested or not shown; & = joins results of further samples; [ ] = another dose, or the depositor's remark. The list is partial; the hit share may differ from the screen's.

SMILES	gsp antagonist	Menin MLL FP FL	gsp agonist	TRPML1 ag	ClpP mod	TRPML1 inh
COc1ccc(CCNCc2ccsc2)cc1OC	4%	-1.0	-51%[inhibitor]	0.6	·	13
CC(=NCCC1=CCCCC1)c1c(O)n(C)c(=O)n(C)c1=O	-1%	0.9	-17%	1.6	-0.1%	-1
O=P(Nc1ccccc1)(Nc1ccccc1)Oc1cccc(Cl)c1	-2%	1.6	14%	-0.6	0.1%	-7
O=C(C(=O)N1CCC2(CC1)OCCO2)c1c[nH]c2ccccc12	7%	0.2	-61%[inhibitor]	0.7	-2.4%	22
O=C(Cc1ccccc1)N1CCN(CC2CC3C=CC2C3)CC1 (configuration not stated)	5%	-7.6	0%	3.1	-0.5%	4
Cc1cccc(N2C(=O)NC(=O)/C(=C\C=C\c3ccco3)C2=O)c1	?	?	?	7.9	0.3%	30
N#Cc1c(Cl)nc(Cl)c2c1CCN(Cc1ccccc1)C2	-8%	·	-50%[inhibitor]	1.2	6.8%	23
O=C(c1ccccc1)C(Cc1ccccc1)N1CCOCC1 (configuration not stated)	2%	·	-8%	0.2	-0.3%	2
COC(=O)C1=C(c2cccc(OC)c2OC)C[C@@H]2CC[C@H]1N2C(=O)NCc1ccc(F)cc1	8%	·	-10%	0.4	2.0%	10
O=c1[nH]c(Cl)ccc1CN1CCOCC1	-1%	·	?	0.3	1.6%	14

Two consecutive compounds already listed, for reference:
SMILES	gsp antagonist	Menin MLL FP FL	gsp agonist	TRPML1 ag	ClpP mod	TRPML1 inh
COc1ccc(CCNCc2ccsc2)cc1OC	4%	-1.0	-51%[inhibitor]	0.6	·	13
CC(=NCCC1=CCCCC1)c1c(O)n(C)c(=O)n(C)c1=O	-1%	0.9	-17%	1.6	-0.1%	-1

(further entries)
SMILES	gsp antagonist	Menin MLL FP FL	gsp agonist	TRPML1 ag	ClpP mod	TRPML1 inh
C[C@@H]1CN([C@@H](C)CO)C(=O)c2c(c3ccccc3n2C)-c2ccccc2CO[C@H]1CN(C)C(=O)C1CC1	·	·	-61%[inhibitor]	0.2	-29%	0
O=c1[nH]c(=O)n(-c2ccccc2F)c(O)c1C=NCCC1=CCCCC1	-26%	15	6%[15.4 µM]	-0.6	·	-7
CN(C)[C@@H]1C(=O)C(C(N)=O)=C(O)[C@@]2(O)C(=O)C3=C(O)c4c(O)ccc(Cl)c4[C@@](C)(O)C3C[C@@H]12 (some centres not stated)	3%	6.4	·	0.3	179%	-14
CCn1c(O)c(C=NCCN2CCOCC2)c(=O)[nH]c1=S	?	6.8	-1%[15.4 µM]	-0.1	·	7
CN1CCN(C(=O)COc2ccc(S(=O)(=O)NCc3ccccc3)cc2Cl)CC1	4%	-0.7	-6%	0.5	-0.4%	-15
O=C(COc1ccccc1)N1CCN(CC2CC3C=CC2C3)CC1 (configuration not stated)	0%	1.8	6%	0.6	0.4%	24
Cc1cc(C=C2C(=O)N(C)C(=S)N(C)C2=O)c(C)n1-c1cccnc1	-14%	7.7	32%	0.5	0.9%	2
Nc1ccc2ccccc2c1	-4%	·	-44%[inhibitor]	1.0	?	14
CC(=O)Nc1ccc(OC(=O)c2ccccc2N)cc1	3%	7.0	1%	-0.3	-18%	7
CC(=O)c1ccc(-c2ccccc2)cc1	?	3.3	25%	2.3	-3.9%	11
Cc1cccc(NC2=NCCCS2)c1	7%	2.6	-1%	-0.5	0.0%	2
CC1=C(O)C(=O)C=C2C1=CC=C1C2(C)CCC2(C)C3CC(C)(C(=O)O)CCC3(C)CCC12C (configuration not stated)	-4%	·	-2%	9.1	-2.0%	28
O=C(Cn1cc(C(=O)c2ccccc2F)c2ccccc21)NC1CC1	8%	-4.4	-4%[15.4 µM]	-0.6	·	5
COC(=O)C1=C(c2cc3ccccc3o2)C[C@@H]2CC[C@H]1N2C(=O)NCCO	-5%	·	8%	-0.7	0.4%	6
COc1ccc(N2C(=O)CC(=O)NC2=O)cc1	2%	16	-4%	-0.7	0.5%	6
COC(=O)C1=C(c2ccc(Cl)c(C(F)(F)F)c2)C[C@@H]2CC[C@H]1N2C(=O)NCCOc1ccccc1	-15%	·	-9%	1.5	1.7%	6
Cc1cccc(CN2CCCC(C(=O)c3ccc(C(F)(F)F)cc3)C2)n1 (configuration not stated)	15%	-4.3	-13%	-0.5	·	-15
CC(=NCC1CCCO1)c1c(O)n(-c2ccc(C)cc2)c(=O)[nH]c1=O (configuration not stated)	-7%	-0.1	-12%	-1.1	0.1%	-9
COc1ccc(OCC(=O)N2CCN(CCc3ccncc3)CC2)cc1	·	·	·	-0.3	-3.2%	-17
COC(=O)c1ccccc1NC(=O)N1C[C@@H]2C[C@@H](C1)c1cccc(=O)n1C2	-2%	-1.5	·	·	-15%	·
Cc1ccc(N2C(=O)NC(=O)/C(=C/c3cnn(-c4ccc(C)cc4)c3)C2=O)cc1	1%	·	-7%[15.4 µM]	-0.1	-0.8%	-10
O=C(CCl)NCC1CCCO1 (configuration not stated)	13%	3.8	6%[15.4 µM]	0.2	·	-1
O=C1/C(=C/c2cccnc2)SC(=NCc2ccccc2)N1Cc1ccccc1	6%	3.5	-35%[inhibitor]	0.1	·	13
COc1cc(/C=C2\C(=O)NC(=O)N(c3ccccc3)C2=O)cc(OC)c1OC	-2%	4.3	2%	-0.4	-2.5%	-3
O=C(c1cc2cc(Cl)ccc2[nH]1)N1CCC2(CC1)OCCO2	-8%	·	?	2.4	-16%	-2
CCN1C[C@]2(OC(=O)c3ccccc3NC(C)=O)CCC(OC)C34C5C[C@H]6C(OC)[C@]5(O)[C@](O)(C[C@@H]6OC)C(C[C@@H]32)[C@H]14 (some centres not stated)	3%	0.3	-29%	1.2	·	12
Cc1cccc(N2C(=O)NC(=O)/C(=C\c3cnc(-c4ccccc4)nc3)C2=O)c1	2%	?	4%	-0.1	-3.8%	27
CCCOC(=O)COc1cc(C)cc2oc(=O)c3c(c12)CCC3	-2%	5.0	7%	4.1	25µM*	-9
O=[N+]([O-])c1cccc(NP(=O)(Oc2ccccc2)Oc2ccccc2)c1	9%	5.9	-4%	·	-1.6%	·
CCn1c(C(=O)N2CCC(C(=O)N3CCC4(CC3)OCCO4)CC2)cc2sccc21	-10%	3.5	-26%	-0.5	-4.9%	-4
CCCCn1c(C)c(C(=O)OCC)c2c(CN3CCOCC3)c(O)ccc21	3%	-1.6	-3%	0.5	-2.0%	0
Cn1c(O)c(C=Nc2ccc(F)cc2)c(=O)[nH]c1=O	-1%	1.1	5%	·	0.2%	·
COc1ccc(NC2CC(=O)N(C(C)C)C2=O)cc1 (configuration not stated)	-3%	-0.3	13%	0.3	1.7%	-3
CN(C)c1ccc(C(=O)N/N=C/C23CC[C@@H](O)CC2(O)CC[C@@H]2[C@@H]3CCC3(C)C(C4=CC(=O)OC4)CCC23O)cc1 (some centres not stated)	0%	3.1	2%	0.8	-20%	2
CCCCn1c(=O)c(C(=O)NCc2ccccc2Cl)c(O)c2ccccc21	-1%	-0.8	-4%	·	?	·
Cc1n[nH]c(C)c1CCCCOc1ccc([N+](=O)[O-])cc1	-16%	36[activator]	-33%[inhibitor]	·	1.7%	·
CC(=O)OC1CC(OC2C(O)CC(OC3C(O)CC(OC4CCC5(C)C(CCC6C5CC(O)C5(C)C(C7=CC(=O)OC7)CCC65O)C4)OC3C)OC2C)OC(C)C1OC1OC(CO)C(O)C(O)C1O (configuration not stated)	4%	2.5	·	0.3&-0.1	1.0%&-2.0%	-2
CCOC(=O)CNC(=O)CSP(=S)(OCC)OCC	-3%	-0.6	36%	-0.1	-4.3%	-15
Nc1c(Cl)cc([N+](=O)[O-])cc1Cl	0%	·	17%	1.7	-1.4%	12
Nc1ccc2nonc2c1[N+](=O)[O-]	1%	?	16%	?	-2.0%	-6
CN1CCCCC1c1ccc(-c2cccnc2)nc1 (configuration not stated)	5%	4.7&-0.5&-2.8	-35%[inhibitor]	-0.4	-1.1%	2
O=C1NC(=O)N(c2cccc(Br)c2)C(=O)/C1=C/c1ccsc1	-3%	?	8%	0.0	·	15
COP(=O)(OC)C(NS(=O)(=O)c1ccccc1)C(Cl)(Cl)Cl (configuration not stated)	8%	-4.6	16%[15.4 µM]	-0.3	-2.2%	6
COc1cc(CN2C(=O)NC(=O)C3(Cc4cc(C)ccc4N(C)C3)C2=O)cc(OC)c1 (configuration not stated)	-14%	5.0	-37%[inhibitor]	-0.1	1.4%	-7
CCN1CCC(NCC2CCCCC2)CC1	15%	0.4	15%	0.6	0.5%	32
Cc1ccc(-c2nn3c(C)nnc3c3ccccc23)cc1S(=O)(=O)NCCO	·	-8.1	18%[15.4 µM]	0.3&0.8	?	1&0
O=C1NC(=S)N(c2ccc(Br)cc2)C(=O)/C1=C/N1CCN(C(=O)c2ccco2)CC1	5%	?	27%	2.3	-0.6%	16
COP(=S)(OC)SCN1C(=O)c2ccccc2C1=O	0%	-1.7	·	-0.4	-0.5%	-14
Cn1cnc([N+](=O)[O-])c1Sc1ccc([N+](=O)[O-])cc1	10%	-0.4	-8%[15.4 µM]	0.8	-0.8%	5
CC(=O)c1ccc(-c2ccc(Cn3c(C)nc4cc(N)c(C)nc43)cc2)cc1	4%	?	-21%	1.1	?	13
Going on with the list:
SMILES	gsp antagonist	Menin MLL FP FL	gsp agonist	TRPML1 ag	ClpP mod	TRPML1 inh
COc1cccc(OC)c1C(=O)NC(=S)N1C[C@H]2C[C@H](C1)c1cccc(=O)n1C2	2%	6.1	·	·	0.0%	·
Cc1cc(C(=O)O)c(C)n1C1CC1	8%	-1.3	4%[15.4 µM]	-0.2	·	5
Nc1cc(N2CCNCC2)ccc1[N+](=O)[O-]	1%	0.0	-73%[inhibitor]	-0.4	-0.6%	-7
C=CCN1CC[C@@]2(C)c3cc(O)ccc3CC1[C@@H]2C	-2%	-0.9&-1.0	·	-0.3	0.3%	-6
COC(=O)C1=C(c2ccccc2OCc2ccccc2)C[C@@H]2CC[C@H]1N2C(=O)NCc1ccc(Br)cc1	-14%	·	-23%	1.9	-2.0%	6
CC1(C)CN=C(Nc2ccccc2C(F)(F)F)S1	2%	1.8	1%	1.0	-1.1%	5
COC(=O)C1=C(c2c(C)noc2C)C[C@@H]2CC[C@H]1N2C(=O)NC(C)C	7%	·	-2%	-0.4	1.4%	7
CCN1CCN(C(=O)Cc2ccc(C)cc2)CC1	5%	2.5	12%	0.7	-1.2%	1
O=C1NC(=O)C(=Cc2ccc(-c3cc(Cl)ccc3[N+](=O)[O-])o2)C(=O)N1	-10%	22	-18%[15.4 µM]	0.0	·	10
CN1C(=O)/C(=C\c2ccc(N3CCCCCC3)cc2)C(=O)NC1=S	5%	?	4%	-0.7	0.8%	4
COC(=O)C(O)(c1ccc(NC(=O)c2ccccc2)cc1)C(F)(F)F (configuration not stated)	2%	16	12%	-0.8	0.1%	-15
O=C1CN=C(c2ccccc2)c2oc3ccc(Br)cc3c2N1	9%	0.5	-79%	1.6	-2.9%	8

Bioassay records deposited in PubChem BioAssay by National Center for Advancing Translational Sciences (NCATS).
